RGS16-Gao = modulators of RGS16 binding to Galphao, primary screen, biochemical, human proteins, multiplexed bead flow cytometry. actives 0.38% (n = 220,000). binding response (% of control), % at 10 µM. AID 1441, 2008. bead-based flow cytometry RGS16-Galphao binding, fluorescence; actives lie on both sides. Regulator of G-protein signaling 16 (Homo sapiens) + Guanine nucleotide-binding protein …;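 active means below 25% or above 175%, edge rows of some plates excepted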;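 further: Galphao activated by GDP with aluminum fluoride before binding; 100% = wells without compound and 0% = beads without RGS; some results beyond the cut were filed as inactive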
Target sequence (O15492 whole entry, looked up): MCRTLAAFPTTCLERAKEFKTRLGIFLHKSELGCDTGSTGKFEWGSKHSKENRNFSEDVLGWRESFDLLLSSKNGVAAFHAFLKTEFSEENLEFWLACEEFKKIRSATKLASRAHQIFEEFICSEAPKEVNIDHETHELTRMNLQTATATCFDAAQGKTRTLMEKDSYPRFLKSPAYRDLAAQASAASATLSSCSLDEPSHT
Target sequence (P09471 whole entry, looked up): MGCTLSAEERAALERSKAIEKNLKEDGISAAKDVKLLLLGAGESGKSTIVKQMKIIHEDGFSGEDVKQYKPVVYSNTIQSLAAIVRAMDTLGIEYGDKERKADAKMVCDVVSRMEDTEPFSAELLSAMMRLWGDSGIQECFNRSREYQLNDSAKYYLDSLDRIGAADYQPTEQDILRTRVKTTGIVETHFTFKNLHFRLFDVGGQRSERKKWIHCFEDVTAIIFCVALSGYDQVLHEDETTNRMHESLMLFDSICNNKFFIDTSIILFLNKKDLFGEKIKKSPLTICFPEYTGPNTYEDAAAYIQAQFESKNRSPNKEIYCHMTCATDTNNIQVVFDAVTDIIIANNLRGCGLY
GALR2 agonist = GALR2 receptor agonists, primary screen, cell-based; Galanin receptor type 2 (Homo sapiens), O43603; GALR2-expressing cells, agonist activation read-out; activation, %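 (tested at 5 µM)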; actives 0.48% (n = 140,000); AID 803, 2007;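 active means above mean plus 3 SD of all compounds, about 5% in these data, not always enough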;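 further: 0% = vehicle buffer wells and 100% = reference agonist at full effect; tested in CHO reporter cells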
Target sequence (O43603 whole entry, looked up): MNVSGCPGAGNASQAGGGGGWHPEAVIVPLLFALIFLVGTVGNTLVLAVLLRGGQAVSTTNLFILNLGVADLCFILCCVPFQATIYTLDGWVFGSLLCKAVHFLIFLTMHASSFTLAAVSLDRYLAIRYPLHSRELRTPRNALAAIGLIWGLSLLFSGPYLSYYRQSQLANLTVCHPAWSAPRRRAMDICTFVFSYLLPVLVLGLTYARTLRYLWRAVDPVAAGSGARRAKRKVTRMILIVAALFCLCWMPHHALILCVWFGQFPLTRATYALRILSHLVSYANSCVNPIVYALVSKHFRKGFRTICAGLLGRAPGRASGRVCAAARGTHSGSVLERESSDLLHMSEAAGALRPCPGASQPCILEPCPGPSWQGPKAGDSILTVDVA
PKD1 inh = inhibitors of human PKD1 kinase, biochemical, fluorescence polarization; PKD1 kinase fluorescence polarization assay; inhibition, %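 (about 10 µM by stock and volumes)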; actives 0.056% (n = 200,000);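 active means inhibition of 50% or more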;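 further: controls were vehicle for no effect and a reference inhibitor for full effect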
HSV replic up = enhancers of HSV replication in host cells, fold increase, host cell viability. AID 1956, 2009. HSV replication augmentation in cells. actives 0.005% (n = 220,000). maximum fold increase;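 active means peak rise of 1.5-fold or more in the series; tested in PC3 cells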;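 further: first round at 10 µM; read as green reporter fluorescence; hits show the peak of a series up to 25 µM; 1 = signal of infected wells without compound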
INS promoter inh = inhibitors of insulin promoter-driven GFP, primary screen, imaging, TRM-6 cells (human fetal islet line), eGFP reporter, cell count; reporter expression induced with tamoxifen; actives 0.9% (n = 130,000); inhibition, % at 2 µM; AID 1273, 2008;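 active means inhibition above the mean plus 3 SD, with well images judged a real hit on visual review, cut at about 60% in these data, passing the limit was not always enough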
INS promoter inh cell count = also measured in INS promoter inh; calls as there; normalized cell count, %; measured here: cell count, toxicity; reference of the scale not given here;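 cells exposed to compound for 48 h; stained nuclei by imaging scaled within each plate; lower means fewer cells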
HSV replic up primary fold = further read-out of HSV replic up, marked with its call; fold increase; compound at 10 µM; measured here: primary screen fold increase 10 uM; tested in PC3 cells;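 GFP signal in the first replicate; 1 = infected wells without compound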
An asterisk follows results filed as active; i = inactive; x = not tested or not shown.

SMILES	RGS16-Gao	GALR2 agonist	PKD1 inh	HSV replic up	HSV replic up primary fold	INS promoter inh	INS promoter inh cell count
CC1CCCCC1NC(=O)C(=O)NCC1CCCO1 (stereo unspecified)	85.0	-0.8	-8.2	i	0.93	-500.0	29.8
CC(C)(C)Cc1nc2ccccc2n1CCc1ccccc1	102.7	-1.7	-10.2	i	0.99	42.9	127.7
COCCNC(=O)c1nn(-c2cc(OC)cc(OC)c2)c(=O)c2ccccc12	91.9	-0.4	-10.0	i	0.96	x	x
Cc1cccc2c1-c1sc(C(=O)NCCCN3CCc4ccccc4C3)cc1CO2	112.8	x	x	i	0.86	x	x
O=C(NCc1nc2ccccc2[nH]1)C1=C[C@H](c2csc3ccccc23)C[C@H](OCc2ccc(CO)cc2)O1	98.8	x	x	i	0.93	x	x
CCCCCCCCC(=O)Nc1cc(C)ccc1OC	105.3	-1.7	-4.7	i	1.16	25.0	126.3
CC(=O)N(c1ccccc1C)C1CCCC1	105.0	-0.2	1.9	i	1.01	-30.0	150.6
Cc1ccc(OCCCCn2ccnc2C)c(C)c1	106.0	x	-3.7	i	0.91	x	x
O=C(Oc1ccc2c(=O)c(Oc3ccc4ccccc4c3)coc2c1)c1ccco1	99.8	-0.9	-4.6	i	0.92	-26.7	84.7
CC(C)(C)c1ccc(C(=O)NCCC(=O)N2CCN(c3ncccn3)CC2)cc1	101.6	-1.2	-2.2	i	1.05	-17.1	74.8
Cc1nn(-c2ccccc2)c(-n2cccc2)c1C(=O)O	104.6	-1.9	-10.7	i	1.02	22.2	148.3
Cc1cccc(Cn2c(SCCN3CCCCC3)nc3c2c(=O)[nH]c(=O)n3C)c1	99.3	x	x	i	0.77	x	x
Cc1cccc(NC(=O)CSc2nnc(NC(=O)c3ccc(S(=O)(=O)N4CCOCC4)cc3)s2)c1C	112.5	-0.9	-10.7	i	1.15	0.0	89.1
CN(NC(=O)/C=C/C(=O)O)c1ncc(C(F)(F)F)cc1Cl	101.0	x	4.0	i	0.99	x	x
COc1ccc(NC(=O)C2CCCN2C(=O)Nc2ccccc2)cc1OC (stereo unspecified)	110.0	6.7	-2.2	i	0.83	6.9	70.3
C=CCC(O)(CC=C)C(C)N (stereo unspecified)	102.4	x	0.4	i	0.97	x	x
COc1ccc(-c2cc(=O)[nH]c(NCc3ccccc3)n2)cc1	97.2	-1.1	-4.7	i	1	-59.1	89.5
CCOc1ccc2[nH]c3c(N4CCC5(CC4)OCCO5)ncnc3c2c1	99.6	x	x	i	0.71	x	x
O=C(NNC(=O)C1CC(c2cccnc2)=NO1)Nc1ccccc1F (stereo unspecified)	102.8	x	-0.9	i	0.97	20.0	88.0
CCCCn1ccc(=O)c2c(C(F)(F)F)nccc21	91.2	-0.5	-3.5	i	0.95	14.3	132.9
COC(=O)COc1ccc(NC(=O)c2ccco2)cc1	97.7	x	x	i	0.92	x	x
COc1cccc(NC(=O)N2CCCC2C(=O)Nc2ccc3c(c2)OCCO3)c1 (stereo unspecified)	91.8	x	1.3	i	0.92	21.4	130.6
CC(C)C(OC(=O)c1nsc(Cl)c1Cl)C(=O)NCc1ccc2c(c1)OCO2 (stereo unspecified)	102.8	-2.0	-15.1	i	0.99	-23.3	127.6
CCCCn1c(=O)c(C(=O)c2ccccc2)nc2ccccc21	102.5	-2.1	-1.5	i	0.91	20.0	180.6
COc1ccc(C(=O)N2CCC(C(=O)c3c(C)cc(C)cc3C)CC2)cc1	95.1	x	x	i	0.92	x	x
CCOc1ccc(Nc2cc(=O)n(C)c(=O)n2C)cc1	105.7	0.1	-5.4	x	x	-50.0	63.2
Cc1ccc(S(=O)(=O)NC2CCCc3ccccc32)cc1C (stereo unspecified)	103.5	-1.8	-2.2	i	0.88	-50.0	83.5
c1ccc(CN2CCN(c3nc4ccccc4c4ccccc34)CC2)cc1	108.8	0.2	-6.6	i	0.88	41.7	103.4
CCCCSc1nnc2c(n1)OC(C(=O)c1ccccc1)Nc1ccccc1-2 (stereo unspecified)	92.1	-1.7	1.0	x	x	x	x
CCOCCOc1nc2c(c(=O)n(C)c(=O)n2C)n1CCc1ccccc1	72.2	-1.3	-9.1	i	0.873	38.9	135.6
CSc1ccc(-c2nc(CN(C)C3CCOC3)c(C)o2)cc1 (stereo unspecified)	104.9	x	0.6	i	0.98	x	x
COc1ccc(N2CCN(C(=N)/C(C(C)=O)=C(\C)O)CC2)cc1	100.0	-2.1	3.3	i	0.75	17.1	86.6
Cn1cccc1/C=N/N1CCN(c2ccccc2)CC1	98.8	x	-5.7	i	0.92	x	x
CSC(=NNC(=O)c1ccc(O)cc1)SC	96.4	-1.8	-1.5	i	0.98	-5.1	105.0
CC(C)NC(=O)C1(c2ccccc2)CCOCC1	99.8	0.5	-6.2	i	1	-11.1	61.8
Cc1cccnc1NC(=S)Nc1ccc(Br)cc1Cl	98.9	x	-1.8	i	0.88	x	x
CCN1C(=O)C(C)S/C1=N\S(=O)(=O)c1ccc(Cl)s1 (stereo unspecified)	88.3	0.2	-13.9	i	1.08	x	x
Cn1ncc(Br)c1NC(=O)CSc1ccc(Cl)cc1	106.2	x	x	i	1.06	x	x
O=C(CC1Nc2cccc3cccc(c23)NC1=O)Nc1ccccc1 (stereo unspecified)	72.1	-1.0	-5.0	i	0.88	40.7	76.0
O=C(COc1ccc(Cl)cc1Cl)Nn1c(=S)[nH]c2ncccc2c1=O	105.6	0.2	-5.3	i	0.96	x	x
Clc1ccc(-c2nc3ccccn3c2CN2CCOCC2)cc1	98.4	-1.4	-8.1	i	1	26.7	118.5
COc1cc(/C=C2\SC(=Nc3ccc(O)cc3)NC2=O)cc(OC)c1OC	98.6	x	x	i	0.74	x	x
COC(=O)[C@@]1(Cc2ccc(OC)cc2)[C@H]2c3cc(C(=O)N4CCCC4)n(CCSCCO)c3C[C@H]2CN1C(=O)c1ccccc1	105.6	-1.2	-15.3	i	0.76	-100.0	121.9
Cc1cccc(NC(=O)CSc2nnc(-c3ccccc3C)o2)c1	111.7	0.6	-3.0	i	0.95	-44.4	188.7
CCCCSc1nnc(-c2ccccc2NC(C)=O)c(=O)[nH]1	97.3	x	-6.4	i	1.18	x	x
Cn1c(O)c(N=NC(=O)Cn2c(C(F)(F)F)nc3ccccc32)c2ccccc21	104.2	-0.1	-1.7	i	0.92	x	x
Cc1cc(CN(C)Cc2c(C(=O)N3CCCCCCC3)nc3ccc(Cl)cn23)n[nH]1	102.4	x	-7.1	i	1	x	x
Cn1c(=O)c2c(ncn2CCCNC2=CC(C)(C)CC(=O)C2)n(C)c1=O	117.3	-1.8	6.7	i	0.85	-193.8	91.8
Cc1ccc(C)c(-n2[nH]c3c4c(ccc3c2=O)C(=O)c2ccccc2C4=O)c1	105.7	-1.6	2.1	i	1.14	x	x
COc1ccc2nc(Nc3nc(-c4ccncc4)cs3)sc2c1	104.4	x	2.9	i	1.06	x	x
CCOc1cc(C2Nc3ccccc3C(=O)N2c2ccccc2OC)ccc1O (stereo unspecified)	97.3	0.0	-3.8	i	0.97	21.4	75.0
CC(=O)N1CC(=O)N(Cc2ccccc2)/C(=C/c2ccccc2)C1=O	99.6	x	4.5	i	0.92	x	x
CC(C)OCCCNC(=S)N1CCC(C(=O)c2ccc3c(c2)OCCO3)CC1	107.2	x	1.9	i	0.99	x	x
CN(C)S(=O)(=O)c1cccc(NC(=O)CSc2nc3ccccc3[nH]2)c1	101.4	x	-4.9	i	0.92	x	x
O=[N+]([O-])c1cc(Oc2cccnc2)cc([N+](=O)[O-])c1	98.8	-0.6	-7.3	i	0.89	57.1	54.9
CCn1nc(C(=O)NCc2ccco2)c(Cl)c1Cl	104.8	-2.2	0.3	i	1	-30.8	85.2
COc1cc(N=Nc2c(C)n(C)n(-c3ccccc3)c2=O)ccc1N	104.1	x	-2.8	i	0.97	x	x
CC1=C(C(=O)OC(C)C)C(c2cccnc2)C2=C(CC(C)(C)CC2=O)N1 (stereo unspecified)	94.5	6.4	-2.6	i	1.01	-125.0	101.3
C/C(CC(=O)Nc1c(C)cc(C)cc1C)=N\NC(=O)c1cnccn1	97.5	0.7	-0.8	i	0.92	33.3	163.9
CCOC(=O)C1=C(C)NC(=O)NC1c1ccc(OC(C)C(=O)O)c(OC)c1 (stereo unspecified)	98.0	-1.0	-5.3	i	0.81	18.8	105.3

Some of these compounds in order of the RGS16-Gao value, rising:
| canonical_smiles | RGS16-Gao | GALR2 agonist | PKD1 inh | HSV replic up primary fold |
| --- | --- | --- | --- | --- |
| CCN1C(=O)C(C)S/C1=N\S(=O)(=O)c1ccc(Cl)s1 (stereo unspecified) | 88.3 | 0.2 | -13.9 | 1.08 |
| COc1ccc(-c2cc(=O)[nH]c(NCc3ccccc3)n2)cc1 | 97.2 | -1.1 | -4.7 | 1 |
| COc1ccc(N2CCN(C(=N)/C(C(C)=O)=C(\C)O)CC2)cc1 | 100.0 | -2.1 | 3.3 | 0.75 |
| Cc1nn(-c2ccccc2)c(-n2cccc2)c1C(=O)O | 104.6 | -1.9 | -10.7 | 1.02 |
| CCn1nc(C(=O)NCc2ccco2)c(Cl)c1Cl | 104.8 | -2.2 | 0.3 | 1 |
| O=C(COc1ccc(Cl)cc1Cl)Nn1c(=S)[nH]c2ncccc2c1=O | 105.6 | 0.2 | -5.3 | 0.96 |
| c1ccc(CN2CCN(c3nc4ccccc4c4ccccc34)CC2)cc1 | 108.8 | 0.2 | -6.6 | 0.88 |

Entries of single compounds, quoted from the list:
O=C(NNC(=O)C1CC(c2cccnc2)=NO1)Nc1ccccc1F (stereo unspecified) is entered as RGS16-Gao: 102.8; GALR2 agonist: x; PKD1 inh: -0.9; HSV replic up: i; HSV replic up primary fold: 0.97; INS promoter inh: 20.0; INS promoter inh cell count: 88.0
COc1ccc(-c2cc(=O)[nH]c(NCc3ccccc3)n2)cc1 is entered as RGS16-Gao: 97.2; GALR2 agonist: -1.1; PKD1 inh: -4.7; HSV replic up: i; HSV replic up primary fold: 1; INS promoter inh: -59.1; INS promoter inh cell count: 89.5

More compounds follow.
SMILES	RGS16-Gao	GALR2 agonist	PKD1 inh	HSV replic up	HSV replic up primary fold	INS promoter inh	INS promoter inh cell count
CC1CCCN(S(=O)(=O)Cc2ccc(Cl)cc2)C1 (stereo unspecified)	92.9	-1.6	-4.7	i	1	-8.3	98.4
COc1ccccc1N1CCN(C(=O)c2cc(C(C)(C)C)oc2C)CC1	95.9	x	x	i	1.2	x	x
CC(=O)C1=NN(c2ccc(Cl)cc2)C(c2ccc3c(c2)OCO3)N(C(C)=O)N1C (stereo unspecified)	98.8	x	x	i	1.12	x	x
C#CCn1cc(C=C2C(=O)c3ccccc3C2=O)c2ccccc21	104.5	-0.6	2.5	i	1.09	-56.2	32.1

Compounds were not picked by outcome; any-hit rate near 1.3%.
